Env fusion inh: blocks HIV Env-driven cell-cell fusion | HeLa-JRFL Env/CEM21 cell fusion, luciferase | inhibition, % at 12.3 µM | 360,000 tested, 1.1% active | AID 651610;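 active means mean replicate inhibition score of at least 50 and every replicate individually at or above 50; inconclusive means only one of the two criteria met; inactive means mean below 50 and not all replicates reaching 50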;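 further: 0% = plate neutral controls and 100% = maraviroc near 300 nM; one replicate is shown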
PABP FP inh: blocks human PABP binding to poly(A) RNA; 290,000 tested, 1% active; P11940; fluorescence polarization; inhibition, % at 35 µM;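 active means 50% or more with normal probe brightness, or confirmed in later tests; inconclusive means above 50% with abnormal brightness, or retests that disagree; inactive means below 50% or failed in later tests; about a fifth of its hits are not listed in these tables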;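 further: calls also rest on retests at 20 µM and on dose response follow-up; controls were probe without protein and protein plus probe with vehicle; some compounds called inactive have numbers as strong as hits; many hits fall short of the cut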
Target sequence (P11940 whole entry, looked up): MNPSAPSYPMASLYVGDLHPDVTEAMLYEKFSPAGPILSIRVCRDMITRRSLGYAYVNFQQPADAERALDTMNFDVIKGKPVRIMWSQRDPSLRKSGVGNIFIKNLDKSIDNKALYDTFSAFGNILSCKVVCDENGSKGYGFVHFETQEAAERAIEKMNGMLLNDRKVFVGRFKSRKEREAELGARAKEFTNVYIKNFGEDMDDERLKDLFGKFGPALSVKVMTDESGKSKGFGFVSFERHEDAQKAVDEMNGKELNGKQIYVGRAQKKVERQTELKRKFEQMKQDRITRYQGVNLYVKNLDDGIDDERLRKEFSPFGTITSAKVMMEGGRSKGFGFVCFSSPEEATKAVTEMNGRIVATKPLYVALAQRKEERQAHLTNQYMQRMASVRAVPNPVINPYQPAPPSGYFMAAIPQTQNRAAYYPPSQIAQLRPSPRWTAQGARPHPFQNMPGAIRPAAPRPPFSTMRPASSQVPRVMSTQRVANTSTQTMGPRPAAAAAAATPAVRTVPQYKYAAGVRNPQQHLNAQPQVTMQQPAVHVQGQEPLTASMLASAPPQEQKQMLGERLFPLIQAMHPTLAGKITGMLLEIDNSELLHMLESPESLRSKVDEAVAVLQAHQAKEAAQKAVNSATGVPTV
Rce1 inhib: yeast Ras-converting enzyme inhibition; Q03530; yeast membranes, quenched prenylated peptide cleavage fluorescence; calls only; 290,000 tested, 0.27% active; AID 2563;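 active means fall in fluorescence gain of 50% or more versus controls, with final raw signal at or below 3038400; inconclusive means same 50% fall but final raw signal above 3038400; inactive means fall in fluorescence gain under 50%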;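 further: plate controls were neutral control wells for no effect and wells lacking membranes for full effect; tested at 10 µM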
Target sequence (Q03530 whole entry, looked up): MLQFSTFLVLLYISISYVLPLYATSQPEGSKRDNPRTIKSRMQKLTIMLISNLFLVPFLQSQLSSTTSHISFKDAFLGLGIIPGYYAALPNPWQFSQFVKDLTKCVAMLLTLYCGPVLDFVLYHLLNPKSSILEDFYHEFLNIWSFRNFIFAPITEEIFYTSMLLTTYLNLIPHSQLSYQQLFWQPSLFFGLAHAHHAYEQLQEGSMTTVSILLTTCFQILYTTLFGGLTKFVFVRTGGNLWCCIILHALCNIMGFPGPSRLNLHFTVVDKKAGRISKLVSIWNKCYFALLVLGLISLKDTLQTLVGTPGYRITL
Yeast UUG start: modulators of start codon recognition fidelity in yeast | AID 602363 | activity score, % at 18.7 µM | 350,000 tested, 0.13% active | S. cerevisiae UUG-firefly luciferase reporter, luminescence/redox ratio;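 active means replicate mean at a twofold rise or more, about +100% in these data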;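 further: firefly luciferase made from a UUG start codon reports start codon fidelity; reporter light over untreated wells divided by growth signal over untreated wells; some hits fall short of that in this replicate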
MT1-MMP act inh: inhibitors of human MT1-MMP activation | P50281 | HT1080 RFP-PRO-GFP cells, GFP/RFP ratio fluorescence, overnight; percent of plate control window, DMSO zero | GFP/RFP ratio change, % at 20 µM | 360,000 tested, 0.061% active | AID 651647;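 active means GFP/RFP ratio change of at least 30% with cell ATP level not reduced by more than half and red fluorescence within 50% of control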; further: strong numbers were not always called active
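Assay system: RFP-PRO-GFP reporter HT1080 cells; read-out basis: GFP/RFP fluorescence ratio; benchmarks: DMSO wells and RFP-L50D-GFP cells; doses: 20 µM single dose, 1% DMSO; schedule: overnight cell settling, then overnight compound exposure, 37 °C, 5% CO2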
eIF4H FP inh: inhibitors of RNA binding by human eIF4H; Q15056; inhibition, % at 35 µM; eIF4H fluorescence polarization binding assay; AID 2012; 290,000 tested, 0.94% active;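 active means 50% or more with normal probe brightness, or confirmed in later tests; inconclusive means above 50% with abnormal brightness, or retests that disagree; inactive means below 50% or failed in later tests; about a fifth of its hits are not listed in these tables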;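 further: calls also rest on retests at 20 µM and on dose response follow-up; 0% = protein and probe with vehicle and 100% = probe without protein; strong numbers were not always called active; many hits fall short of the cut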
CSC inhib: blocks cancer stem cells; cancer stem cell-like cells viability, luminescence; inhibition, % at 7.5 µM; 300,000 tested, 1.1% active;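 active means mean at 75% or more and at least half the replicates too; inconclusive means mean and replicates disagree; tested in HMLE shEcad cells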;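 further: 0% = median of negative and 100% = median of positive control wells; the first replicate is given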
eIF4H FP inh retest: further read-out of eIF4H FP inh, marked with its call; inhibition, %; compound at 20 µM; confirmation average;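 mean of two retest wells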
PABP FP inh retest: further read-out of PABP FP inh, marked with its call; inhibition, %; compound at 20 µM; confirmation repeats;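 mean of two retest wells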
MT1-MMP act inh RFP: also measured in MT1-MMP act inh; calls as there; RFP signal change, %; measured here: RFP expression control read;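 0 = vehicle wells; hits needed this value within 50% of zero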
An asterisk follows results filed as active; i = inactive; ? = inconclusive; / = not tested or not shown; & = joins results of further samples.

SMILES | Env fusion inh | PABP FP inh | Rce1 inhib | Yeast UUG start | MT1-MMP act inh | MT1-MMP act inh RFP | eIF4H FP inh | CSC inhib | others
O=C(CNC(=O)c1ccc(Br)o1)Nc1cccc(S(=O)(=O)N2CCOCC2)c1 | -48 | / | i | -9 | -2 | 1 | / | -19
CN(CC(=O)Nc1ccccc1C(F)(F)F)C(=O)Cn1c(=O)oc2ccccc21 | 8 | / | / | -21 | 3 | 2 | / | -9
Cc1nn(CC(=O)N2CCc3ccccc3C2)c(C)c1Cl | 6 | -1 | i | -5 | 1 | -1 | 6 | -5
CC(=O)CC(c1ccccc1)c1c(O)c2ccccc2oc1=O (centres undefined) | 10&0&5 | -14&5 | i | -12&-13&6 | -2&1&-2 | 1&4&4 | -10&1 | 3&10&-5
N#Cc1ccccc1OCC(=O)OCC(=O)NCc1ccc2c(c1)OCO2 | -10 | / | / | -20 | -1 | -2 | / | 12
Cc1ccc(C(=O)OCC(=O)NCc2ccc3c(c2)OCO3)cc1S(=O)(=O)N1CCOCC1 | / | / | / | -5 | -2 | 0 | / | 11
O=C(CSc1ncc(-c2ccccc2)n1CC1CCCO1)N1CCCCC1 (centres undefined) | -22 | 7 | i | -17 | -2 | 0 | 6 | -20
COc1ccccc1-c1cnc(C(O)c2ccc(F)cc2C)[nH]1 (centres undefined) | 12 | / | / | -26 | -3 | 0 | / | /
O=C(Cc1ccc(-c2ccccc2)cc1)Nc1ccccc1 | -7 | -6 | i | -22 | -1 | -3 | -10 | -10
C/C(=N\NC(=O)c1cccs1)c1ccncc1 | -14 | -8 | i | -10 | 6 | -1 | 4 | -4
N#CCC(=O)Nc1ccc(C(=O)OCC(=O)c2ccc3c(c2)NC(=O)CO3)cc1 | / | / | / | -9 | 0 | 6 | / | 27
O=C(CCN1C(=O)S/C(=C/c2ccccc2)C1=O)Nc1ccc(O)c(C(=O)O)c1 | -9 | 2 | i | -3 | -3 | 0 | 6 | -4
CC1CCN(C(=O)Cn2nnnc2CN2CCOCC2)CC1 | 12 | -5 | i | -16 | 1 | 4 | -3 | /
Cc1csc(Nc2ccc(Cl)cc2)n1 | -22 | -12 | i | -18 | -3 | -3 | -4 | -5
O=[N+]([O-])c1cc([N+](=O)[O-])c(N2CCCCCC2)cc1NCCO | -45 | 6 | i | -20 | 8 | -4 | -5 | 70
Cc1ccc(Cn2c(O)c(N=NC(=S)Nc3ccccc3F)c3ccccc32)cc1 | 38 | 7 | i | / | 9 | 2 | 7 | 27
COc1cccc(C(N)c2nc(-c3cc(F)cc(F)c3)cs2)c1 (centres undefined) | -16 | / | / | -10 | -3 | -2 | / | /
O=C(CN1CCN(c2ccccc2)CC1)Nc1ccccc1C(F)(F)F | / | 4 | i | 12 | 4 | -4 | 1 | -12
Cc1cc(C)nc(N(C#N)CN2C(=O)c3ccccc3S2(=O)=O)n1 | / | -5 | / | -18 | 1 | -1 | 7 | 7
Cc1cccc(-c2nc3ccccc3c(=O)n2N)c1 | -12 | 8 | i | -19 | 1 | 1 | -7 | -1
O=C(NCC1CCN(c2ccc(S(=O)(=O)N3CCOCC3)cc2)CC1)Nc1ccccc1 | 2 | -4 | i | 3 | 2 | -3 | 1 | 18
Cc1ncoc1C(=O)Nc1cccc(Cl)c1 | / | 3 | i | -5 | -3 | 2 | -9 | -7
CCN(CC)c1nc(N2CCOCC2)nc2ccccc12 | 9 | 2 | i | -5 | -7 | -4 | -4 | 4
CCOC(=O)N1CCC(N2CCN(C3CCCC3)C(CCO)C2)CC1 (centres undefined) | 2 | -5 | i | / | -1 | 0 | -2 | 1
CC12CC(=O)C3C(CCC4=CC(=O)CCC43C)C1CC=C2CC(=O)O (centres undefined) | 11 | / | / | 1 | 2 | 0 | / | /
CCN1C(=O)c2cccc3c(S(=O)(=O)Nc4ccccc4)ccc1c23 | / | 3 | i | -12 | 12 | 7 | 7 | 0
COc1ccccc1CNC(=O)[C@H](Cc1c[nH]c2ccccc12)NC(=O)[C@@H]1Cc2ccccc2CN1 | / | -1 | i | -15 | 2 | 2 | -10 | 0
O=C(Nc1cccc(F)c1)[C@@H]1CCCN1 | 2 | 4 | / | 10 | -4 | 2 | -11 | -15
Nc1nc(CSc2nc3ccccc3s2)nc(Nc2ccccc2)n1 | / | 0 | i | / | / | / | 5 | -6
Cc1ccc(S(=O)(=O)NN2C(=O)c3ccccc3NC2C)cc1 (centres undefined) | 4 | 6 | i | / | 2 | 4 | 0 | -15
O=C(Nc1ccc2ccccc2n1)c1ccccc1 | -73 | 6 | i | -26 | -2 | -3 | 0 | 17
O=c1c2c(nc3nc(NCc4ccccc4Cl)[nH]n13)CCC2 | -3 | 2 | i | / | / | / | -2 | -5
O=C(Nc1ccccn1)c1c(O)c2cccc3c2n(c1=O)CCC3 | / | -5 | i | -20 | 2 | 9 | -5 | -11
CN1CCN(CC(=O)c2cc(C(C)(C)C)c(O)c(C(C)(C)C)c2)CC1 | 21 | 14 | i | -2 | 1 | 1 | -1 | 1
Cc1ccc(Cn2ccsc2=NC(=O)CCl)cc1 | ? | -5 | i | / | -22 | -24 | -1 | -3
CC1CC(C(=O)Nc2ccccc2)C(=O)O1 (centres undefined) | 4 | / | i | -2 | 3 | 2 | / | 10
COC(=O)c1ccc(CSc2ccccc2C)o1 | 9 | 95 | i | 8 | 7 | 4 | -4 | -2 | eIF4H FP inh retest=-2;PABP FP inh retest=4
CNCC(O)COc1ccccc1 (centres undefined) | -41 | 2 | i | / | 0 | 0 | -5 | 4
CC(C)(O)[C@@H]1Cc2c(ccc3ccc(=O)oc23)O1 | 1 | 20 | ? | 4 | 2 | 4 | -6 | 2
COC(CC(=O)NNC(=S)Nc1ccccc1)OC | -6 | -5 | i | -21 | 2 | 2 | -3 | -11

Retrieved by structure from the list above, 2 records:
SMILES | Env fusion inh | PABP FP inh | Rce1 inhib | Yeast UUG start | MT1-MMP act inh | MT1-MMP act inh RFP | eIF4H FP inh | CSC inhib | others
O=C(Nc1ccccn1)c1c(O)c2cccc3c2n(c1=O)CCC3 | / | -5 | i | -20 | 2 | 9 | -5 | -11
CNCC(O)COc1ccccc1 (centres undefined) | -41 | 2 | i | / | 0 | 0 | -5 | 4

A stretch from the list above, for reference:
SMILES | Env fusion inh | PABP FP inh | Rce1 inhib | Yeast UUG start | MT1-MMP act inh | MT1-MMP act inh RFP | eIF4H FP inh | CSC inhib | others
O=c1c2c(nc3nc(NCc4ccccc4Cl)[nH]n13)CCC2 | -3 | 2 | i | / | / | / | -2 | -5
O=C(Nc1ccccn1)c1c(O)c2cccc3c2n(c1=O)CCC3 | / | -5 | i | -20 | 2 | 9 | -5 | -11
CN1CCN(CC(=O)c2cc(C(C)(C)C)c(O)c(C(C)(C)C)c2)CC1 | 21 | 14 | i | -2 | 1 | 1 | -1 | 1
Cc1ccc(Cn2ccsc2=NC(=O)CCl)cc1 | ? | -5 | i | / | -22 | -24 | -1 | -3
CC1CC(C(=O)Nc2ccccc2)C(=O)O1 (centres undefined) | 4 | / | i | -2 | 3 | 2 | / | 10
COC(=O)c1ccc(CSc2ccccc2C)o1 | 9 | 95 | i | 8 | 7 | 4 | -4 | -2 | eIF4H FP inh retest=-2;PABP FP inh retest=4
CNCC(O)COc1ccccc1 (centres undefined) | -41 | 2 | i | / | 0 | 0 | -5 | 4
CC(C)(O)[C@@H]1Cc2c(ccc3ccc(=O)oc23)O1 | 1 | 20 | ? | 4 | 2 | 4 | -6 | 2
COC(CC(=O)NNC(=S)Nc1ccccc1)OC | -6 | -5 | i | -21 | 2 | 2 | -3 | -11

(continued)
SMILES | Env fusion inh | PABP FP inh | Rce1 inhib | Yeast UUG start | MT1-MMP act inh | MT1-MMP act inh RFP | eIF4H FP inh | CSC inhib | others
CCc1noc(C)c1C(=O)NCCc1ccc(S(N)(=O)=O)cc1 | 8 | / | i | -13 | 6 | -5 | / | -11
COc1ccc(N2CCN(C(=O)C3Cc4ccccc4CN3C(=O)c3ccccc3)CC2)cc1 (centres undefined) | -29 | 35 | i | 4 | 0 | -1 | -9 | 12
Cc1ccc2cc(C#N)c(N3CCN(C(=O)c4cccs4)CC3)nc2c1 | -6 | 8 | i | -9 | -3 | 1 | 0 | -3
CN(C(=O)COC(=O)c1ccc2[nH]c3c(c2c1)CCCC3)C1CCS(=O)(=O)C1 (centres undefined) | -6 | -10 | / | 3 | 1 | -2 | -10 | -7
CC(CCN1CCC(n2nccc2NC(=O)c2ccccc2Cl)CC1)c1ccccc1 (centres undefined) | -2 | 6 | i | 0 | 0 | 2 | 1 | 21
Cc1cc(C(=O)Cn2nnc(-c3ccc(Cl)cc3)n2)c(C)n1-c1ccccc1 | 41 | 2 | i | / | 4 | -1 | -4 | -3
CCOc1cc(C(=O)N2CCCN(C)CC2)cc(OCC)c1OCC | -84 | -2 | i | -1 | -6 | -2 | 10 | -3
O=C(COC(=O)C1=NN(c2ccccc2)C(=O)CC1)Nc1ccc([N+](=O)[O-])cc1C(F)(F)F | / | / | / | -10 | -4 | 1 | / | -8
Cc1c(NC(=O)C(C)OC(=O)CCC2CCCC2)c(=O)n(-c2ccccc2)n1C (centres undefined) | 0 | -3 | i | -4 | 7 | 3 | -6 | -12
CO/N=C/NC(=O)C1=NOC(CNc2ncc(C(F)(F)F)cc2Cl)C1 (centres undefined) | / | -6 | i | / | 7 | -1 | -6 | 39
Cc1ccc(F)c(C2=CC(=O)C[C@H](c3ccc(F)cc3)C2)c1 | 14 | / | / | -18 | 1 | -1 | / | 13
COc1ccccc1CC(NC(C)=O)C(=O)NC1CCN(C(=O)Nc2ccc(F)cc2)CC1 (centres undefined) | -3 | -8 | i | 2 | -1 | 3 | 7 | -4
COc1ccccc1C(=O)NC(=O)COC(=O)c1nc(Cl)ccc1Cl | / | / | i | -11 | 6 | 5 | / | -19
COc1ccc(C(=O)O)cc1S(=O)(=O)Nc1ccc2cn[nH]c2c1 | 2 | / | / | -14 | 1 | 5 | / | -13
CC12CCC3C(CCC4N(CCO)CCC34C)C1CCC2O (centres undefined) | -49 | -3 | i | -13 | -4 | -1 | 15 | -2
O=C(Nn1cnc2ccccc2c1=O)c1ccc(Cl)c([N+](=O)[O-])c1 | 11 | -4 | i | -16 | 0 | 2 | 4 | -1
COc1ccc(-c2ccc(CCC(=O)O)n2C(C)C)cc1 | -33 | 0 | i | 14 | -4 | 5 | -7 | -5
COc1ccccc1OCCC(=O)OCC(=O)Nc1cccc(Br)c1 | -78 | 8 | i | / | 1 | 3 | -2 | -10
CNc1nc(Oc2ccc(=O)n(C)n2)nc(N2CCOCC2)n1 | / | 1 | i | -11 | 2 | 5 | -10 | -14
CCOC(=O)c1[nH]c2ccc(F)cc2c1NC(=O)CN1CCc2cc(OC)c(OC)cc2C1 | / | 9 | i | / | / | / | 1 | -5
COc1ccc(OC2OC3COC(c4ccco4)OC3C(O)C2NC(C)=O)cc1 (centres undefined) | / | 8 | i | / | -4 | 1 | 0 | -13
Cc1cc(C)c(NC(=O)CS(=O)CC(=O)N2CCN(c3ccccc3)CC2)c(C)c1 (centres undefined) | / | 2 | i | -11 | -4 | 0 | 2 | -10
Cc1cc(=O)n2c3ccccc3n(CC(O)CN3CCCC3)c2c1C#N (centres undefined) | / | -3 | i | -18 | -7 | -2 | 9 | 5
CCCN(CCC)Cc1c(C(=O)N/N=C/c2ccc(Br)cc2)nnn1-c1nonc1N | 16 | -1 | / | 8 | -2 | 1 | 9 | -1
